High-throughput results deposited in PubChem by National Center for Advancing Translational Sciences (NCATS).
VDR inh: vitamin D3 receptor (human) inhibition. VDR-SRC2-3 peptide fluorescence polarization, 2 h. Potency, µM, for the others: max response, negative = inhibition, most hits filed as inhibitors. hit rate 0.93% among 400,000; active means well fitted inhibition curve with a large enough effect; inconclusive means small, poorly fitted or top-dose-only effect, or another doubt; inactive means no such curve, though single readings can be large or run the other way; further: series mostly up to about 120 µM
Target sequence (P11473 whole entry, looked up): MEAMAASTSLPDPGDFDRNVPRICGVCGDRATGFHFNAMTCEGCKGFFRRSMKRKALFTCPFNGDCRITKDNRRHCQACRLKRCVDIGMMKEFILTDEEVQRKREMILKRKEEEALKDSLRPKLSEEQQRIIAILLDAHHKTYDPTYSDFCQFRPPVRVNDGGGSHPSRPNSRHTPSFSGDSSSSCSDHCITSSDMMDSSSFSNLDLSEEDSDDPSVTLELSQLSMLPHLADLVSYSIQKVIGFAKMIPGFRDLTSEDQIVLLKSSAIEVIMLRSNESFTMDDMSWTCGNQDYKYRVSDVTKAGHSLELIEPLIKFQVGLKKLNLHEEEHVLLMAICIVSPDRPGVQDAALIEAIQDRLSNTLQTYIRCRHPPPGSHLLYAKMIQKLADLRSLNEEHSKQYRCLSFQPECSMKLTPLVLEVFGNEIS
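Signal is fluorescence polarization, reporting how far test compounds block the interaction of VDR with the SRC2-3 coregulator peptide after a 2 h room-temperature incubation.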
* marks the source's active call; other numbers are inactive results; ? = inconclusive; & = joins results of further samples. On the % scale 0 is the no-effect control and ±100 the full control effect; potency means the concentration at half of the fitted maximal effect. This is a subset; the hit share may differ from the screen's.

SMILES | VDR inh
Cc1cccc(C(C)(C)C)c1OCCn1ccnc1 | -2%
C=CCn1c(=NC(=O)c2ccco2)sc2cc(C(=O)OCC)ccc21 | ?
CN(C)CCn1c2c(c(SCC(=O)NCc3ccccc3)nc1=O)CCCC2 | -5%
CSc1ncc(C(=O)NCc2cccc(F)c2)c(-c2ccccc2)n1 | -1%
Cc1ccc(-n2c(-c3ccncc3)n[nH]c2=S)cc1 | -2%
Cc1cccc(C)c1-n1ncc(C(=O)NCCCN2CCCCC2)c1C1CCN(C(=O)OC(C)(C)C)CC1 | 4%
Cc1ccc(C2C(C(=O)c3sc(C)nc3C)=C(O)C(=O)N2CCN2CCOCC2)o1 (centres undefined) | -7%
COC(=O)CC1(c2ccc(OC)cc2)C(=O)c2ccccc2C1=O | -3%
Cc1cc(NC(=O)COC(=O)C2CC(=O)N(c3cccc(C)c3C)C2)no1 (centres undefined) | 0%
Cc1ccnc(NC(=O)C(C)N2C(=O)c3ccccc3C2=O)c1 (centres undefined) | 6%
COc1ccccc1NC(=O)N1CCCC1C(=O)NCCc1ccccc1 (centres undefined) | -20%
COCCn1c(=N)c(S(=O)(=O)c2ccc(F)cc2)cc2c(=O)n3cccc(C)c3nc21 | -4%
O=c1c(-c2cc(-c3ccccc3)nc3c2COc2ccc(Cl)cc2-3)coc2ccc(F)cc12 | 5%
CCN(CC)S(=O)(=O)c1ccc2c(c1)N(CC(=O)Nc1ccccc1F)C(=O)C1CCCN21 (centres undefined) | 8%
O=C(NCC1CCCO1)c1ccc(NC(=O)c2cccc([N+](=O)[O-])c2)cc1 (centres undefined) | -3%
CCN(CC)S(=O)(=O)c1ccc2c(c1)nc(SCC(=O)NC1CC1)n2-c1ccccc1OC | 11%
CCOc1ccc(-c2nnc(NC3=NCCCCC3)o2)cc1 | 23%
O=Nc1c(O)n(Cc2ccccc2)c2ccccc12 | -18%
CCOC(=O)c1[nH]nc(C(=O)c2ccc(Br)cc2)c1O | 18%
COc1nc(-c2ccc(C)cc2)ccc1-c1noc(-c2ccco2)n1 | 30%
O=C(NCc1cnn(-c2ccc(F)cc2)c1)C1CCC(=O)N(C2CC2)C1 (centres undefined) | 6%
CCOc1ccc(NC(=O)C2CC(=O)OC2c2ccccc2)cc1 (centres undefined) | 13%
Cc1ccc(NC(=O)CSc2ncccn2)cc1F | -12%
CC(NC(=O)CN(c1ccc(F)cc1)S(C)(=O)=O)c1ccccc1 (centres undefined) | -4%
O=C(O)c1nn2c(c1Br)NC(c1ccccc1)CC2C(F)(F)F (centres undefined) | 6%
SMILES | VDR inh
CCOc1cc(/C=C2\COc3ccccc3C2=O)ccc1OCC(=O)N(C)C | 50µM*
Cc1ccc(NC(=S)NNC(=O)Cn2nc([N+](=O)[O-])cc2C)cc1 | -17%
Cc1ccc(-n2c(=O)c3cccnc3n2CC(=O)Nc2ccccc2C(F)(F)F)cc1C | 10%
Clc1cc(NC2CCCCC2)ncn1 | -6%
CCN(CC)c1ccc(C(=S)NCc2ccccc2)cc1 | -6%
Cc1ccc(S(=O)(=O)Nc2ccccc2F)cc1C(=O)OC(C)C(=O)N1CCOCC1 (centres undefined) | 2%
CC1(C)CC(=O)c2c(O)c(-c3ccccc3)c(=O)n(-c3ccccc3)c2C1 | -22%
O=C(COC(=O)C1(c2ccc(Cl)cc2)CCCC1)NC1CCS(=O)(=O)C1 (centres undefined) | 7%
Cc1nn(C(C)C(=O)NCc2cccs2)c(C)c1[N+](=O)[O-] (centres undefined) | -8%
Oc1ccc(N2CCN(Cc3ccc(OCCCN4CCCCC4)cc3)CC2)cc1 | 18%
CC(=O)N(Cc1ccco1)C1(C(=O)NC2CCCC2)CCCCC1 | 2%
CCCCn1c(O)c(/C=C2\C=NN=C2c2ccccc2)sc1=S | -11%
Cc1ccsc1C(=O)Nc1nc2ccccc2[nH]1 | -13%
COc1ccc(CCN(Cc2cc3ccc(C)cc3n3nnnc23)C(C)=O)cc1OC | 40µM*
COc1ccc(C(=O)Nc2sc3c(c2C#N)CCN(C(C)=O)C3)cc1 | -3%
CC/C(=N/O)C(=O)c1ccc(Br)cc1 | 5%
Cc1ccc(-c2cc(C(=O)n3cnc4ccccc43)c3ccccc3n2)cc1C | 13%
COc1ccc2sc(N3C(=O)CC(Cc4cccc(C)c4)C3=O)nc2c1 (centres undefined) | 0%
CCSC1=C(C#N)C(c2ccc(Cl)cc2)C2=C(CCCC2=O)N1 (centres undefined) | 1%
Cc1ccc(C(=O)/C=C/c2cn(CC(O)CN3CCCCCC3)c3ccccc23)cc1 (centres undefined) | 8%
CCOCCCNc1nc2cc(OC)c(OC)cc2c2nc(-c3ccccc3)nn12 | -18%
CC(C)(CO)N=Cc1c(O)[nH]c2ccccc12 | 8%
COc1ccc(CN2C=C3C(=O)C(C)(OC(=O)CCc4ccccc4)C(=O)C=C3C=C2c2ccc(C#N)cc2)cc1 (centres undefined) | -18%
COc1cccc(NC(=S)/C(=C(\[O-])c2ccc([N+](=O)[O-])cc2)[n+]2ccccc2)c1 | ?
Cc1ccc(S(=O)(=O)N2CCC(C(=O)N3CCC(C(=O)NCc4cccnc4)CC3)CC2)cc1 | -7%
SMILES | VDR inh
COCCC(=O)N1CCC(n2nccc2NC(=O)c2ccccc2C)CC1 | ?
COc1cc(OC)c(NC(=O)c2ccc3c(SCC(=O)O)c4c(nc3c2)CCCC4)cc1Cl | -29%
Oc1cc2c(cc1CN1CCN(c3cccc(C(F)(F)F)c3)CC1)CCC2 | -14%
COc1cccc(CNC(=O)CCS(=O)(=O)c2cc3c4c(c2)CCN4C(=O)CC3)c1 | 0%
CC(=O)c1ccc(-c2cccc([C@H]3[C@@H]4C=CC[C@@H](C)[C@@H]4C(=O)N3Cc3ccccc3)c2)cc1 | -10%&-30%
CC(C)Cc1ccc(C(C)C(=O)Nc2ccccc2O)cc1 (centres undefined) | 7%
Clc1ccc(OCCn2ccnc2)c(Br)c1 | -6%
COc1ccc(NC2CCCN(C(=O)c3csc(C(C)C)n3)C2)cc1OC (centres undefined) | -3%
CC(=O)c1ccc(-c2cccc(-c3nc4ccccn4c3NC3CCCCC3)c2)cc1 | 2%
OCC1OC(n2cnc3c(NC4CCCC4)ncnc32)C(O)C1O (centres undefined) | -20%
Cc1c(Cl)cccc1NC(=O)NCc1c(-n2cccc2)sc2c1CCCC2 | 9%
N[C@@H](Cn1c2c(c(=O)[nH]c1=O)CCC2)C(=O)O | -2%
Cc1ccc(NC(=O)c2oc(=O)c3ccccc3c2-c2ccccc2)c(C)c1 | -28%
COc1ccc(-n2c(=S)[nH]c3cc(C(=O)NCc4cccnc4)ccc3c2=O)c(OC)c1 | 1%
COc1ccc(C(=O)NN=C(Cc2ccccc2)Cc2ccccc2)cc1OC | 1%
Cc1ccc(C(=O)CCS(=O)(=O)c2ccc(Cl)cc2)cc1 | ?
CCOC(=O)Cn1nc(C)c(NC(=O)COc2ccc(C)c(C)c2)c1C | ?
COc1ccc(N2CC(C(=O)OCC(=O)Nc3cccc(C)c3)CC2=O)cc1 (centres undefined) | 2%
COc1cccc(NC(=O)C2CCCN2C(=O)OCc2ccccc2)c1 (centres undefined) | -26%
Cc1ccc(C(=O)Nc2ccccc2[N+](=O)[O-])cc1S(=O)(=O)N1CCOCC1 | 1%
CN(C)c1ccc(NC(=S)NC(=O)/C=C/c2ccc(Cl)cc2)cc1 | -7%
O=C(N/C(=C/c1cccc([N+](=O)[O-])c1)C(=O)N1CCCCCC1)c1ccco1 | 1%
Cc1ccc(S(=O)(=O)N2CCN(C(=O)C3CCCO3)CC2)cc1 (centres undefined) | 9%
CCCCN(S(=O)(=O)c1ccccc1)S(=O)(=O)c1ccccc1 | 7%
CCOC(=O)C(C(=O)OCC)N(Cc1cc(OC)ccc1OC)C(=O)C1CC(CO[Si](C)(C)C(C)(C)C)=CN1C(=O)OC(C)(C)C (centres undefined) | -11%

Copied from the entries so far (2 entries):
SMILES | VDR inh
Cc1ccc(NC(=O)CSc2ncccn2)cc1F | -12%
CC(NC(=O)CN(c1ccc(F)cc1)S(C)(=O)=O)c1ccccc1 (centres undefined) | -4%

Random excerpt: 4 entries already listed, in no set order.
SMILES | VDR inh
Clc1ccc(OCCn2ccnc2)c(Br)c1 | -6%
CC(=O)c1ccc(-c2cccc([C@H]3[C@@H]4C=CC[C@@H](C)[C@@H]4C(=O)N3Cc3ccccc3)c2)cc1 | -10%&-30%
Oc1cc2c(cc1CN1CCN(c3cccc(C(F)(F)F)c3)CC1)CCC2 | -14%
CC(C)Cc1ccc(C(C)C(=O)Nc2ccccc2O)cc1 (centres undefined) | 7%

VDR inh: what is marked active above.
SMILES | VDR inh
CCOc1cc(/C=C2\COc3ccccc3C2=O)ccc1OCC(=O)N(C)C | 50µM*
COc1ccc(CCN(Cc2cc3ccc(C)cc3n3nnnc23)C(C)=O)cc1OC | 40µM*

Next part
SMILES | VDR inh
CC(C)n1c(SCC(=O)c2ccc3c(c2)OCCO3)nc2c1c(=O)n(C)c(=O)n2C | 0%
COC(=O)C1=C(C)N(Cc2ccccc2)C(=NCCc2ccccn2)N[C@H]1c1cccc(F)c1 | -13%
CCc1ccc(-c2nc(CN3CCC(C(=O)NCCN(CC)c4ccccc4)CC3)c(C)o2)cc1 | -5%
COc1ccc(C)cc1NC(=O)C1CCCN(S(=O)(=O)c2cnc[nH]2)C1 (centres undefined) | 0%
CC(=O)OCC(OC(C)=O)C(OC(C)=O)C(OC(C)=O)C(OC(C)=O)C(COC(C)=O)OC(C)=O (centres undefined) | 28%
COCC1CCCN(Cc2cn(Cc3ccccc3)nc2-c2cc3ccccc3o2)C1 (centres undefined) | 6%
Cc1nn(CC(=O)Nc2ccc(OC(F)(F)F)cc2)c(=O)c2c(C)n(-c3ccc(Cl)cc3)nc12 | -3%
Cc1ccc(C(=O)Nc2cccc3ccccc23)o1 | 2%
CC(C)(C)c1ccc(C(=O)NC(=S)N2CCCCCC2)cc1 | 7%
O=S(=O)(c1cccc2nsnc12)N1CCN(C/C=C/c2ccccc2)CC1 | -8%
COc1ccccc1NC(=O)c1ccc(S(=O)(=O)N2CCOCC2)cc1 | -2%
Cc1c(C(=O)OCC(=O)N2CC(=O)Nc3ccccc32)oc2ccccc12 | 18%
OCCN1CCN(CC#CCC(c2ccccc2)c2ccccc2)CC1 | -14%
O=S(=O)(c1ccccc1)N1CCN(C(=S)Nc2ccc(Br)cc2)CC1 | -3%
CN(CC(=O)Nc1ccccc1N1CCCC1)S(=O)(=O)c1ccc(F)cc1 | 10%
COc1cc([N+](=O)[O-])cc(/C=N/NC(=O)CSc2ccccn2)c1O | 2%
CCn1c(COc2cc(C)ccc2C(C)C)nnc1SCC(=O)Nc1nccs1 | -18%
CCOc1ccc(NC(=O)CN(C)C(=O)CCCOc2ccc(Cl)c(C)c2)cc1OCC | 5%
CCOC(=O)N1CCN(C(=O)CCCn2c(=S)[nH]c3ccc(Br)cc3c2=O)CC1 | -4%
CC1=C(C(=O)Nc2ccc(C)cc2Cl)C2(CCCCCC2)OC1=O | 13%
O=C(Nc1ccc(Br)cc1)c1ccccc1CC[N+](=O)[O-] | -3%
Cc1cnc(C(=O)OCc2ccc(Br)cc2)cn1 | 0%
OCCCNc1nnc(-c2ccccc2)c2ccccc12 | -2%
Cc1ccc2c(=O)cc(C(=O)Nc3ccc(S(=O)(=O)N4CCCCC4)cc3)oc2c1 | 3%
CCc1ccc(NC(=O)Cn2cnc3c(=O)n(C)c(=O)n(C)c32)cc1 | -6%

Copied from the list.
Entry for CC(=O)OCC(OC(C)=O)C(OC(C)=O)C(OC(C)=O)C(OC(C)=O)C(COC(C)=O)OC(C)=O (centres undefined) in VDR inh: 28%
Entry for CC(C)(C)c1ccc(C(=O)NC(=S)N2CCCCCC2)cc1 in VDR inh: 7%

The list goes on:
SMILES | VDR inh
COC(=O)N1c2ccccc2C23[C@@H]4CN5CCC[C@]6(CCC12C(O)(C6)C4=O)[C@H]53 | -4%
C#Cc1ccc([C@@H]2C=C(C(=O)NCc3ccccc3)O[C@H](OCCCCO)C2)cc1 | -19%
C/C(=N\NC(=O)c1nn(C)cc1Br)c1cccc(NC(=O)C2CCCC2)c1 | ?
C#C[C@]1(O)CC[C@@H]2[C@H]3CCC4=CC(=O)CC[C@H]4[C@H]3C(=C)C[C@@]21CC | 0%
O=C(COC(=O)C1CCN(S(=O)(=O)c2ccc3c(c2)OCCO3)CC1)Nc1cc(C(F)(F)F)ccc1Cl | 3%
COc1cc(OC)cc(C(=O)Nc2ccc(-c3nc4cc(C(C)C)ccc4o3)cc2)c1 | 22%
Cc1ccc(-c2noc(CCCC(=O)NC3CCCC3)n2)cc1 | -16%
COc1ccc(S(=O)(=O)NCCSC(C)(C)C)cc1 | -7%
CCOC(=O)c1cnc2c(-c3ccccc3OC)c(C)nn2c1C | -2%
COc1ccc(NC(=O)CSc2nncc(=O)n2N)cc1OC | -8%
O=C(CN1CCN(c2ccccc2F)CC1)Nc1nnc(C(F)(F)F)s1 | -29%
COc1ccc2oc(C(=O)NCc3ccco3)c(C)c2c1 | 0%
COc1ccc(NC(=O)CN(C)S(=O)(=O)c2cnc[nH]2)cc1Cl | -12%&23%
